PABP polyA inh – PABP-poly(A) binding inhibition; AID 2014; PABP-poly(A) RNA binding, fluorescence polarization; inhibition, % at 35 µM; actives 1% (n = 290,000);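 active = 50% or more with normal probe brightness, or confirmed in later tests; about a fifth of its hits are not listed in these tables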;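 also: calls also rest on retests at 20 µM and on dose response follow-up; controls were probe without protein and protein plus probe with vehicle; some compounds called inactive have numbers as strong as hits; many hits fall short of the cut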
MT1-MMP act inh – inhibitors of human MT1-MMP activation; actives 0.061% (n = 360,000); HT1080 RFP-PRO-GFP cells, GFP/RFP ratio fluorescence, overnight; percent of plate control window, DMSO zero; P50281; GFP/RFP ratio change, % at 20 µM;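 active = GFP/RFP ratio change of at least 30% with cell ATP level not reduced by more than half and red fluorescence within 50% of control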; also: strong numbers were not always called active
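Test system: HT1080 RFP-PRO-GFP cells; Benchmarks: DMSO and RFP-L50D-GFP cell wells; Timing: cells overnight before dosing, compound overnight, 37 °C, 5% CO2; Compound: one 20 µM compound dose with 1% DMSO; Read-out: GFP/RFP fluorescence ratio.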
HIV Env fusion – blocks HIV Env-driven cell-cell fusion. actives 1.1% (n = 360,000). HeLa-JRFL Env/CEM21 cell fusion, luciferase. AID 651610. inhibition, % at 12.3 µM;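 active = mean replicate inhibition score of at least 50 and every replicate individually at or above 50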;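 also: 0% = plate neutral controls and 100% = maraviroc near 300 nM; one replicate is shown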
Rce1 inh – inhibitors of yeast Ras-converting enzyme; yeast membranes, quenched prenylated peptide cleavage fluorescence; calls only; AID 2563; actives 0.27% (n = 290,000);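 active = fall in fluorescence gain of 50% or more versus controls, with final raw signal at or below 3038400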;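 also: plate controls were neutral control wells for no effect and wells lacking membranes for full effect; tested at 10 µM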
Target sequence (Q03530 whole entry, looked up): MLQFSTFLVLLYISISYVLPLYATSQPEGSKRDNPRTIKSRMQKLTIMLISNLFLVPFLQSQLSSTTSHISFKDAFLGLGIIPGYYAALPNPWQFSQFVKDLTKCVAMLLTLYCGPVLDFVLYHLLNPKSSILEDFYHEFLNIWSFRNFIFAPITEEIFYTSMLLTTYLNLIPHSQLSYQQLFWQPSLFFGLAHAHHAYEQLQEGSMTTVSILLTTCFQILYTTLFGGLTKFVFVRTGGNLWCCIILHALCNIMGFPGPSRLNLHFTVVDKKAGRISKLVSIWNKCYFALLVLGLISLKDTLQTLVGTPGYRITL
eIF4H FP inh – inhibitors of RNA binding by human eIF4H; Q15056; eIF4H fluorescence polarization binding assay; inhibition, % at 35 µM; actives 0.94% (n = 290,000); AID 2012;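 active = 50% or more with normal probe brightness, or confirmed in later tests; about a fifth of its hits are not listed in these tables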;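 also: calls also rest on retests at 20 µM and on dose response follow-up; 0% = protein and probe with vehicle and 100% = probe without protein; strong numbers were not always called active; many hits fall short of the cut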
UUG fidelity – yeast start codon fidelity modulation | actives 0.13% (n = 350,000) | S. cerevisiae UUG-firefly luciferase reporter, luminescence/redox ratio | activity score, % at 18.7 µM;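 active = replicate mean at a twofold rise or more, about +100% in these data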;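 also: firefly luciferase made from a UUG start codon reports start codon fidelity; reporter light over untreated wells divided by growth signal over untreated wells; some hits fall short of that in this replicate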
CSC inhib – cancer stem cell inhibition; cancer stem cell-like cells viability, luminescence; inhibition, % at 7.5 µM; actives 1.1% (n = 300,000); AID 2717;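 active = mean at 75% or more and at least half the replicates too; tested in HMLE shEcad cells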;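 also: 0% = median of negative and 100% = median of positive control wells; the first replicate is given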
MT1-MMP act inh RFP – further read-out of MT1-MMP act inh, marked with its call; RFP signal change, %; measured here: RFP expression control read;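 0 = vehicle wells; hits needed this value within 50% of zero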
* marks the source's active call; other numbers are inactive results; i = inactive; . = no result given.

SMILES	PABP polyA inh	MT1-MMP act inh	MT1-MMP act inh RFP	HIV Env fusion	Rce1 inh	eIF4H FP inh	UUG fidelity	CSC inhib
COc1ccc(C(=O)N2N=C(c3ccc(NS(C)(=O)=O)cc3)CC2c2cccs2)cc1 (stereo not drawn)	-1.9	4.3	0.6	3.9	i	-1.9	-14.6	-2.0
CN(C(=O)c1ccccc1C(=O)OCC(=O)Nc1ccccc1)c1ccccc1	.	1.9	-1.8	.	.	.	-5.0	15.7
Cc1cn(C2OC(CC(=O)Oc3ccccc3)C(O)C2O)c(=O)[nH]c1=O (stereo not drawn)	.	2.0	1.3	1.3	i	.	.	-13.1
Nc1c(NCc2ccccc2)c(=O)[nH]c(=O)n1Cc1ccccc1	-1.1	0.7	4.0	.	i	0.2	1.0	1.6
COc1ccc(CNC(=O)C(=O)NCC2CCCO2)cc1 (stereo not drawn)	-1.1	1.2	-10.2	.	i	-4.2	-17.0	-16.2
c1ccc(Oc2cccc3cccnc23)nc1	-8.7	3.4	0.8	-10.7	i	6.0	.	-10.7
Cc1occc1-c1nnc(SCC(=O)Nc2c(F)cccc2F)n1C	.	-3.1	0.7	.	i	.	-3.7	-3.5
CSc1ccc(/C=C(\C#N)C(=O)NC2CCCCC2C)cc1 (stereo not drawn)	9.4	-10.4	-14.2	8.9	i	8.5	.	40.1
COCCNC(=O)CSc1nc2cc3c(cc2c(=O)n1CCCC(=O)NCc1ccc(OC)cc1)OCO3	3.9	-2.0	-2.1	-11.7	i	1.1	.	1.5
CCOC(=O)N1CCN(CC(=O)c2c(C)[nH]c3ccccc23)CC1	-1.5	-0.5	2.4	.	i	-11.2	8.7	-3.7
Cc1nc2scc(-c3ccc(Cl)cc3)c2c(=O)n1N	-5.5	-5.2	-6.4	-31.9	i	2.5	.	-4.5
O=C(Nc1ccccc1)C1CCCN1/C=C/C(=O)C(F)(F)F (stereo not drawn)	-0.1	2.8	6.1	2.6	i	-3.4	3.7	-9.5
COc1ccc(C)cc1N(CC(=O)Nc1cccc(N(C)S(C)(=O)=O)c1)S(C)(=O)=O	-7.9	-5.6	-2.8	6.2	i	6.7	-0.7	0.0
CCN(CC(=O)Nc1c(F)cccc1F)C(=O)c1ccc(COc2ccccc2)o1	.	0.3	-2.0	-5.9	i	.	-3.7	-4.2
O=C(Oc1c(Br)cc(Br)c2cccnc12)N1CCCCC1	-4.8	1.2	-2.3	10.6	i	-10.1	.	4.7
O=C(CSc1nnc(-c2ccccc2F)n1C1CC1)N1CCCC1	.	-1.5	-0.8	-12.2	.	.	27.0	.
CCOc1cc(/C=N/NS(=O)(=O)c2ccccc2)ccc1OS(=O)(=O)c1ccc(C)cc1	-9.4	4.5	0.3	.	i	-2.2	-6.8	-10.8
CC(=O)NN1C(=O)c2ccccc2NC1c1cccc([N+](=O)[O-])c1 (stereo not drawn)	-3.0	7.4	1.9	-4.0	i	-4.8	-33.2	-5.3
O=c1c2ccccc2nnn1CSc1nnc(-c2cccnc2)n1-c1ccccc1F	3.3	-0.2	-2.2	.	i	-1.6	-5.4	-11.4
Cc1ccc(S(=O)(=O)N2CCCCC2)cc1NC(=O)c1ccc2ccccc2n1	2.8	3.6	6.5	11.7	i	-3.9	.	10.9
CC(C)(C)c1ccc(C2/C(=C(\O)c3ccc4c(c3)OCCO4)C(=O)C(=O)N2CCCN2CCOCC2)cc1 (stereo not drawn)	-6.1	1.0	-0.5	-3.4	i	-8.7	9.7	1.1
O=C(CCCN1C(=O)/C(=C/c2cccc(Br)c2)SC1=S)Nc1cccnc1	-2.0	-3.1	-6.4	-11.1	i	48.2	-10.2	-15.6
O=C(c1ccccc1F)N1CCOCC1	4.2	-0.9	3.8	-4.0	i	-7.8	8.3	-6.1
c1cncc(CSc2ccc(-c3cccs3)nn2)c1	-12.1	-1.8	-2.6	-0.7	i	0.6	-8.1	22.7
COc1ccc(C(=O)N2CCN(C3CCC(c4ccccc4)CC3)CC2)cc1OC (stereo not drawn)	-3.5	7.0	0.7	-8.3	i	-3.8	-8.5	.
CN1CCC(NC(=O)Cc2c(F)cccc2Cl)CC1	17.6	-2.1	0.7	-26.0	i	5.6	-7.4	2.0
Cc1ccc(C(N)=S)c(C)c1	.	2.7	0.9	-14.6	i	.	-9.2	3.0
Cc1ccc(SCc2c(C(=O)N/N=C/c3ccoc3)nnn2-c2nonc2N)cc1	-8.8	-0.5	1.6	3.6	i	5.8	-19.9	-1.7
COc1ccc(CNC(=O)CN2CCN(S(=O)(=O)c3cccs3)CC2)cc1OC	-18.5	-4.0	1.4	-0.8	i	-12.8	.	-1.1
O=c1cc(COn2nnc3ccc(C(F)(F)F)cc32)nc2sccn12	8.9	-2.0	-4.1	-44.3	i	-1.4	-15.7	-7.3
Cc1ccccc1C(=O)NC(=S)Nc1ncccn1	-2.6	-0.8	2.2	-11.2	i	-10.8	-14.1	-16.5
O=C1C2CCCN2C(c2ccc(F)cc2)N1c1cccc(Cl)c1 (stereo not drawn)	-3.3	7.3	2.7	-4.5	i	-2.9	-17.7	-7.1
Cc1ccc(S(=O)(=O)N2CCOCC2)cc1NC(=O)COc1cccc(Oc2ccccc2)c1	.	1.4	-10.1	-5.2	i	.	-20.3	-7.6
CCN1CCN(C2=C(Cl)C(=O)N(Cc3ccccc3)C2=O)CC1	-13.7	-4.2	1.3	.	.	46.9	-18.1	-18.5
COc1cccc(NC(=O)CSc2nnc(Cc3ccc(C)cc3)c(=O)n2N)c1	.	3.9	-4.1	.	i	.	.	-16.4
CC(=O)c1cnc(-c2ccccn2)s1	-9.3	-0.6	4.0	12.0	i	12.8	.	-17.7
CN(C)CCCOc1ccc(-c2ccc3nccn3c2)cn1	.	4.3	3.4	1.3	.	.	-11.1	.
CCCCn1c(=O)[nH]c(=O)c2c(C(=O)OCC)cc(-c3ccc(OC(F)F)cc3)nc21	2.7	3.9	-1.6	16.7	i	-15.3	-11.7	.
C=CCn1c(=NC(=O)c2ccccc2[N+](=O)[O-])sc2cc(S(C)(=O)=O)ccc21	-16.1	-0.8	-3.5	-16.1	i	-4.5	.	-7.3
Cc1sc2nc[nH]c(=O)c2c1-c1ccc(F)cc1	-0.9	2.9	0.9	-1.7	i	1.9	-4.5	-5.1
COc1ccc(NC(=O)c2c(C)noc2C(C)C)cc1S(=O)(=O)N1CCCCC1	.	6.6	0.0	6.9	.	.	-15.7	1.2
CCOC(=O)C1CCN(CC(=O)N2CCc3ccccc32)CC1	6.2	0.8	2.5	-12.6	i	-9.7	-12.6	-2.5
O=S(=O)(Nc1nc2cc3c(cc2nc1Cl)OCCO3)c1ccccc1	-4.0	0.3	1.6	-5.1	i	11.7	.	3.5
COc1ccc(CCNC(=O)CS(=O)(=O)Cc2nc(-c3ccc(C)cc3)oc2C)cc1OC	0.7	2.8	-1.2	9.5	i	-3.5	-6.0	7.2
COc1cc(/C=C/C(=O)N2CCN(C)CC2)cc(S(=O)(=O)N2CCc3ccccc32)c1OC	0.3	0.0	-4.1	-19.7	i	-6.7	-0.5	-0.6
COc1ccc(CCNC(=O)CCCn2c(=S)[nH]c3ccsc3c2=O)cc1OC	.	0.2	-1.0	-10.1	.	.	-6.3	.
COc1cccc(CC(NC(C)=O)C(=O)NC2CCN(C(=O)C3CCCCC3)CC2)c1OC (stereo not drawn)	9.4	0.3	0.4	-3.2	i	6.2	-0.4	.
CCN1CCN(C(=O)CS(=O)Cc2nc(-c3cccc(C)c3)oc2C)CC1 (stereo not drawn)	6.6	0.1	0.9	-4.8	i	4.0	.	-9.0
CN(CCOc1ccccc1)C(=O)c1cc(S(=O)(=O)N2CCOCC2)c(Cl)cc1Cl	.	-6.4	-13.7	8.6	.	.	33.1	.
Cc1ccccc1CC1SC(N=C(N)N)=NC1=O (stereo not drawn)	-3.6	5.2	3.2	-138.3	i	3.5	13.4	-7.5
C/C(CC(=O)Nc1ccc2c(c1)OCO2)=N\NC(=O)c1ccccc1N	-4.0	-1.0	0.1	-13.4	i	-1.9	-19.3	-5.2
CCc1cccc(C)c1NC(=O)CSc1nnc(-c2cc3cc(Br)ccc3o2)n1CC	-10.9	0.0	-9.5	-0.5	i	1.4	-17.0	0.1
CCN(c1ccccc1)S(=O)(=O)c1cc(OC)ccc1OC	8.0	6.1	3.9	-38.4	i	-4.8	-9.5	-0.3
O=C(C1CCN(S(=O)(=O)c2cccs2)CC1)N1CCCC(C(F)(F)F)C1 (stereo not drawn)	-12.1	-0.2	-1.0	-13.6	i	-13.8	-8.2	-6.1
Clc1ccccc1-c1nnc2sc(C3COc4ccccc4O3)nn12 (stereo not drawn)	-3.3	4.1	-3.2	37.2	.	-9.1	-8.1	5.0
Cc1cc(C(=O)Nc2ccccc2)oc(=O)c1	9.1	0.2	-2.5	-11.0	i	-4.9	.	-2.7
Cc1ccnc(NS(=O)(=O)c2ccc(NC(=O)/C=C/c3cccs3)cc2)n1	-5.5	0.0	0.5	17.5	i	11.3	.	2.9
Cc1cc([N+](=O)[O-])c(NCCCCCCO)c([N+](=O)[O-])c1	.	11.0	-2.4	-14.3	i	.	0.4	11.8
Cc1ccc(N/C(=C\C(=O)c2ccccc2)C(=O)O)cc1	9.2	-1.0	3.5	-12.3	i	-0.9	.	-1.7
COc1ccc2c(c1)cc(C(O)c1ccccn1)n2S(=O)(=O)c1ccccc1 (stereo not drawn)	18.5	4.0	-1.8	-18.5	i	3.7	8.4	5.4

Complete entries from above. Values in the order: PABP polyA inh, MT1-MMP act inh, MT1-MMP act inh RFP, HIV Env fusion, Rce1 inh, eIF4H FP inh, UUG fidelity, CSC inhib
Record of COc1cccc(CC(NC(C)=O)C(=O)NC2CCN(C(=O)C3CCCCC3)CC2)c1OC (stereo not drawn) → 9.4, 0.3, 0.4, -3.2, i, 6.2, -0.4, .
Record of Cc1ccc(N/C(=C\C(=O)c2ccccc2)C(=O)O)cc1 → 9.2, -1.0, 3.5, -12.3, i, -0.9, ., -1.7
Record of COc1ccc2c(c1)cc(C(O)c1ccccn1)n2S(=O)(=O)c1ccccc1 (stereo not drawn) → 18.5, 4.0, -1.8, -18.5, i, 3.7, 8.4, 5.4
Record of CCN1CCN(C(=O)CS(=O)Cc2nc(-c3cccc(C)c3)oc2C)CC1 (stereo not drawn) → 6.6, 0.1, 0.9, -4.8, i, 4.0, ., -9.0
Record of Cc1cc([N+](=O)[O-])c(NCCCCCCO)c([N+](=O)[O-])c1 → ., 11.0, -2.4, -14.3, i, ., 0.4, 11.8

Continued:
SMILES	PABP polyA inh	MT1-MMP act inh	MT1-MMP act inh RFP	HIV Env fusion	Rce1 inh	eIF4H FP inh	UUG fidelity	CSC inhib
O=C1CN(C(=O)c2cc(F)cc(F)c2)c2ccccc2N1	-2.2	0.6	4.8	5.1	i	5.5	-24.0	8.0
O=C1c2ccccc2C(c2nc3ccccc3[nH]2)N1Cc1ccco1 (stereo not drawn)	.	1.7	4.0	-9.1	.	.	-27.0	.
O=C(Nc1ccn(Cc2ccccc2)n1)c1cccc(Cn2cc([N+](=O)[O-])cn2)c1	-11.9	-0.6	-3.1	23.1	i	-5.1	.	-4.1
O=C(c1ccccc1F)N1CCN(c2ccc([N+](=O)[O-])cc2-n2cccc2)CC1	-2.7	2.7	-4.2	-37.0	i	-1.4	.	2.9
Cc1cccc(OCC(O)CN2C(C)(C)CC(O)CC2(C)C)c1C (stereo not drawn)	-8.1	3.6	10.6	0.0	i	4.3	-3.7	3.7
CCCOc1ccc(F)cc1-c1cc(C(=O)Nc2ccc(OC)cc2C)[nH]n1	.	-13.1	-11.6	32.6	.	.	-3.0	.
CCN(CC)S(=O)(=O)c1ccc(N(C)CCc2ccc(OC)c(OC)c2)nc1	2.3	-3.4	-3.1	0.4	i	2.1	-17.7	-1.9

Assay outcomes deposited in PubChem by several laboratories.

The list is partial; the hit share may differ from the screen's.
